# Vif TR-FRET = inhibitors of Vif binding to APOBEC3G peptide, primary screen, biochemical, TR-FRET, GST-Vif 1-94, biotin-A3G peptide, dose response retest (AID 1117319) | TR-FRET GST-Vif / biotin-A3G peptide binding; higher % means a stronger effect; test concentration not given here; strong numbers were not always called active | one-dose inhibition, %; IC50 in µM for titrated hits | hit rate 0.57% among 260,000;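 active means above the screen mean plus three standard deviations and confirmed in dose response; inconclusive means results disagree or hit not tested in dose response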;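 further: Vif residues 1-94 fused to GST binding biotinylated APOBEC3G peptide 110-148; 0% = full assay without inhibitor and 100% = GST in place of GST-Vif; retest series ran down from 100 µM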
# E coli growth = E. coli growth inhibition, primary screen, OD600 | Escherichia coli growth, 23 h; hits give low values | OD600 absorbance (concentration not given with the values) | hit rate 0.21% among 330,000 | AID 1053175, 2014;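 active means OD600 absorbance below the run mean of sample wells minus 3.6 SD, in any replicate, cut at about 0.56 in these data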;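 further: stock transfer was 300 nL into about 60 µL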
# FGF22 binding = binders of human FGF22 protein, primary screen, FGF22 synaptogenesis inhibitor project, biophysical, thermal shift, single point; Fibroblast growth factor 22 (Homo sapiens), Q9HCT0; recombinant FGF22 thermal shift, SYPRO orange fluorescence; percent of sucrose octasulfate shift, DMSO zero; calls only at 9.99 µM; hit rate 1.5% among 340,000;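 active means melting point raised past a set limit in the mean and every replicate; inconclusive means no clear call; three in four hits are not shown here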
# AF4-AF9 inh = inhibitors of AF4 peptide binding to AF9, primary screen, biochemical, AlphaScreen, biotin-AF4 peptide, FLAG-AF9, single point; Protein AF-9 (Homo sapiens), P42568; hit rate 0.47% among 350,000; inhibition, % at 10 µM; AID 651704, 2012;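 active means every replicate reaching a set inhibition limit, whatever the replicate mean, cut at about 25% in these data; inconclusive means mean inhibition reaches that limit but some replicates miss it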;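 further: 0% = plate neutral control median and 100% = total signal loss; the record names both 10 and 1 µM as test concentration; the first replicate is given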
# Target sequence (P42568 whole entry, looked up): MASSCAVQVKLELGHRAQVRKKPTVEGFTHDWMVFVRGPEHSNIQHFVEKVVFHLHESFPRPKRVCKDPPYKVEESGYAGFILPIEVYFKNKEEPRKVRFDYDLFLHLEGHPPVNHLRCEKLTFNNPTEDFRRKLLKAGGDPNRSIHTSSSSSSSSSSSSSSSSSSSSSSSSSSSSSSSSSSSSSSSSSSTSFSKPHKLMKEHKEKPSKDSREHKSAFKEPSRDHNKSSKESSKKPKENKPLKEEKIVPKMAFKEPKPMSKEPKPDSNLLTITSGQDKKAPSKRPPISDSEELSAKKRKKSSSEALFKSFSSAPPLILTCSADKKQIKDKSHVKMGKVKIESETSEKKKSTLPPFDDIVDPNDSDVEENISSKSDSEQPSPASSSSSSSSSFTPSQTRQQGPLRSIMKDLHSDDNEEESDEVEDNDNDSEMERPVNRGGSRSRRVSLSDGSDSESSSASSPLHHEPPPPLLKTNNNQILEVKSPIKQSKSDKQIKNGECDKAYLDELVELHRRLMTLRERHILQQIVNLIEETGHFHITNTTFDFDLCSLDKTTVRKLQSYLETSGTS
# HNF4A DNA FP = change in binding of human HNF4A to DNA, primary screen, biochemical, fluorescence polarization, FITC-DNA; Hepatocyte nuclear factor 4-alpha (Homo sapiens), P41235; 1 h; activity change, % at 10 µM; hit rate 0.3% among 360,000; AID 1224865, 2016; in the data active means activity change above about 30%, passing the limit was not always enough;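 further: controls were the assay level and a saturating level of protein; the project sought stronger binding though the title names inhibitors; some compounds called inactive have numbers as strong as hits; positive values seem to mean higher polarization but the record does not say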
# Target sequence (P41235 whole entry, looked up): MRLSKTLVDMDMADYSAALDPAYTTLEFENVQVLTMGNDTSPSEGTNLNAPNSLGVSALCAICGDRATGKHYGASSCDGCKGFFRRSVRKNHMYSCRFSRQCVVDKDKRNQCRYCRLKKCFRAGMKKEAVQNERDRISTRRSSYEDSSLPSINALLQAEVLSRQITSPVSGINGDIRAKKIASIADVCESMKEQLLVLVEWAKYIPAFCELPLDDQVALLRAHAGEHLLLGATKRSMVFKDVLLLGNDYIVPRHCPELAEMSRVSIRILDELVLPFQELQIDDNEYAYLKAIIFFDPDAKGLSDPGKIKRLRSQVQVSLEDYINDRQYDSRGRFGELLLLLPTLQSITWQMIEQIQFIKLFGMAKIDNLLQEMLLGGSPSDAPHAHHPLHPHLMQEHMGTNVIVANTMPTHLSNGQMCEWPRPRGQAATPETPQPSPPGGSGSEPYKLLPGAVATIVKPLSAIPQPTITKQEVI
# RanGTP-Imp inh = inhibitors of RanGTP-importin-beta interaction, primary screen, biochemical, FRET, CFP-Ran, YFP-importin-beta, homogeneous; Ran GTPase (GTP-bound) - importin-beta complex; cell-free CFP-Ran/YFP-importin-beta FRET ratio; inhibition, % (concentration not given with the values); hit rate 1.1% among 300,000; AID 2216, 2009;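 active means most replicates above 15%; inconclusive means exactly half above 15%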;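 further: 0% = DMSO wells and 100% = Ran loaded with GDP instead of GTP; wells of about 40 µL received 100 nL stock; the first replicate is given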
# UCH37 DUB inh = inhibitors of human UCH37 deubiquitinase, primary screen, biochemical, Ub-AMC cleavage, fluorescence. inhibition, % (test concentration not listed). purified proteasome/UCH37. Ubiquitin carboxyl-terminal hydrolase isozyme L5 (Homo sapiens), Q9Y5K5. hit rate 0.33% among 330,000. AID 588478, 2011;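 active means mean of two replicates above 20%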;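 further: 0% = compound-free wells with enzyme and 100% = wells lacking proteasome; stock transfer was 100 nL into about 20 µL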
#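 Assay system: Proteasome-bound UCH37. Buffer or medium: pH 7.4 Tris-HCl (50 mM) with ovalbumin, ATP-MgCl2, DTT. Incubation: 30 min preincubation with enzyme, 25 min cleavage at room temperature. Measured by: fluorescence, ex 355 nm, em 460 nm. Read-out basis: percent inhibition. Control set: wells without proteasome as full block, compound-free enzyme plus substrate as uninhibited.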
# Numbers without * were called inactive; i = inactive; ? = inconclusive; · = no result given; + = active, no number; & = joins results of further samples; ! = a repeat was not active. Some of the compounds tested; rates above refer to the full screens.
SMILES,Vif TR-FRET,E coli growth,FGF22 binding,AF4-AF9 inh,HNF4A DNA FP,RanGTP-Imp inh,UCH37 DUB inh
Cc1cc(OC(C)C(=O)NCC2CCCO2)cc(C)c1Cl (stereo unspecified),6%,0.7,i,-1.0,1.4,0.4,1.2
O=S(=O)(c1ccc(Cl)cc1)N1CCN(c2nc(-c3cccs3)nc3ccccc23)CC1,-17%,0.71,i,-7.8,6.6,1.4,-12
Cc1ccc(N(CC(=O)NCc2ccc3c(c2)OCO3)S(C)(=O)=O)cc1,1%,0.7,·,·,2.4,4.8,4.4
O=C(c1ccccc1)N1CCN(c2cc(-c3ccccc3)nc3cc(-c4cccc(Cl)c4)nn23)CC1,-66%,·,i,-4.0,-3.7,·,·
O=C(CCSc1ccc(Br)cc1)c1ccc(O)cc1,0%,0.59,i,-0.5,-0.3,-3.9,0.9
O=C(NCCc1ccccc1)c1ccc2c(c1)S(=O)(=O)c1ccccc1C2=O,·,0.67,i,2.0,-4.1,-3.9,-0.5
Nc1nc(=S)n(-c2ccccc2)[nH]1,-13%,0.74,i,-3.4,1.2,-1.1,2.3
CCn1ncc(Br)c1C(=O)Nc1ccc(-c2ccno2)cc1,·,0.62,i,-9.1,3.0,?,2.1
CC1=NN(C(N)=S)C(=O)C1N=Nc1cccc(Cl)c1C (stereo unspecified),·,0.63,i,-3.9,-5.3,1.5,8.5
Cc1cc(C(=O)COC(=O)c2ccc(N)c([N+](=O)[O-])c2)c(C)n1-c1ccc2c(c1)OCO2,15%,0.7,i,2.6,3.0,0.4,2.7
COc1ccc(S(=O)(=O)N2CCOC2CNC(=O)C(=O)NCCc2ccc(OC)c(OC)c2)cc1 (stereo unspecified),·,0.7,·,·,-0.3,0.7,4.3
COCCNC(=O)C(c1ccc(C)cc1)N(C(=O)CCC(=O)Nc1ccccn1)C1CCCCC1 (stereo unspecified),?,0.65,i,2.4,-3.0,1.4,-0.4
CC1(C(=O)Nc2ccc3c(c2)OCO3)CCN1Cc1ccccc1OC(F)F (stereo unspecified),·,·,i,-0.6,-4.4,·,·
COc1cc(NC(=O)CSc2nc(=O)n(CCN3CCOCC3)c3c2CCC3)cc(OC)c1,-7%,0.71,i,1.0,2.2,1.4,7.5
COc1ccc(/C=N/N2C(=N)SCC2=O)cc1,-3%,·,i,·,5.9,-3.0,·
Cc1nc(SCC(=O)NC2CCCC2)c2c(C)c(C)sc2n1,·,0.64,i,1.6,4.9,1.6,3.3
O=C(O)CCS(=O)(=O)Cc1ccccc1F,0%,0.65,·,·,0.3,3.0,1.9
CCc1noc(C)c1C(=O)OCC(=O)NCc1ccccc1OC,0%,0.68,i,4.7,-0.3,·,2.1
COc1ccccc1C(=O)COC(=O)Cc1c[nH]c2ccccc12,16%,0.69,i,2.3,-3.1,-0.9,3.8
CCOc1ccc(C(=O)N[C@H](C(=O)O)C(C)C)cc1,16%,0.69,·,·,1.4,?,-0.5
CCOc1ncccc1C(=O)OCC(=O)c1ccccc1,-3%,0.71,i,0.0,-0.8,-1.4,2.1
COC(=O)/C=C/C1=CN(Cc2ccccc2)CCC1=O,·,·,i,0.2,-3.5,·,4.9
Cc1ccc(/C=C/C(=O)OCC(=O)NCCN2C(=O)CSC2=O)o1,·,0.67,i,-10,-0.3,-0.7,10
Cc1ccc(NS(=O)(=O)c2ccc(C(=O)N3CCCN(C)CC3)cc2)cc1,-4%&-2%,0.68,·,·,-1.5,-2.9,0.2
Cc1ccc(CCNC(=O)C2CCC(=O)N(CC3CCCCC3)C2)cc1 (stereo unspecified),-2%,0.7,i,-9.3,3.5,5.8,5.0
CC(C)CCNC(=O)CSc1nc2ccccc2s1,-6%,0.72,i,-3.0,1.9,1.1,2.1
Cc1onc(-c2ccccc2Cl)c1C(=O)NNC(=O)c1ccccc1F,2%,0.68,i,-2.0,-0.6,7.2,-1.0
CC(=O)c1cccc(OC(=O)c2ccccc2)c1,-10%,·,i,4.1,-3.4,·,·
O=C(NC1(Cc2ccccc2)CCN(CCCc2ccccc2)C1=O)c1ccccc1 (stereo unspecified),·,0.69,i,2.8,-2.1,·,2.4
COc1ccc(C(=O)OCC(=O)NC2CC2)cc1S(=O)(=O)N(C)Cc1ccccc1,-4%,0.73,i,-0.1,-1.6,-1.2,-1.8

# Two successive entries out of the list so far:
SMILES,Vif TR-FRET,E coli growth,FGF22 binding,AF4-AF9 inh,HNF4A DNA FP,RanGTP-Imp inh,UCH37 DUB inh
Cc1ccc(CCNC(=O)C2CCC(=O)N(CC3CCCCC3)C2)cc1 (stereo unspecified),-2%,0.7,i,-9.3,3.5,5.8,5.0
CC(C)CCNC(=O)CSc1nc2ccccc2s1,-6%,0.72,i,-3.0,1.9,1.1,2.1

# Later entries.
SMILES,Vif TR-FRET,E coli growth,FGF22 binding,AF4-AF9 inh,HNF4A DNA FP,RanGTP-Imp inh,UCH37 DUB inh
CCC(C)NCC(=O)Nc1ccc(-c2nc3cc(NC(=O)CNC(C)CC)ccc3o2)cc1 (stereo unspecified),28%,0.78,·,·,0.1,·,-284
O=C(Cn1cnc([N+](=O)[O-])n1)c1ccc(O)c(O)c1,11%,0.68,i,-2.9,0.4,0.3,11
Cc1ccc(C)c(S(=O)(=O)N2CCCCC2CCNC(=O)C(=O)NCc2cccnc2)c1 (stereo unspecified),4%,0.7,i,-1.8,-1.3,-3.9,-0.5
N#Cc1ccccc1OCC(=O)NCC1(N2CCCCC2)CCCCC1,6%,0.72,·,3.6,7.5,-1.0,1.6
CN1CCN(c2ccccc2NC(=O)c2ccc(F)cc2)CC1,-5%,0.66,i,-16,3.0,-1.7,-1.4
O=c1cc(O)c2sc(Nc3cccc(C(F)(F)F)c3)nc2[nH]1,3%,·,·,·,5.3,-1.7,·
Cc1c(Cl)cccc1NC(=O)CCN1CCOCC1,·,0.66,i,-0.1,-0.9,?,4.4
Cc1cccc(N2C(=O)c3ccccc3C2=O)n1,2%,0.64,i,-2.2,-1.4,5.8,7.4
O=C(/C=C/c1ccc([N+](=O)[O-])cc1)Nc1cccnc1,4%,0.69,·,·,2.2,3.6,8.4
CCCc1c(O)nc(SCC(=O)N2CCCCC2)[nH]c1=O,2%,0.69,i,-3.9,0.1,3.8,4.8
Cc1ccc(S(=O)(=O)N2CCOCC2)cc1C(=O)Nc1nc(-c2cccnc2)cs1,2%,0.7,i,5.4,1.8,-3.1,0.4
CC1(C)CC(=O)C2=C(C1)OC(N)=C(C#N)C2Cc1ccccc1 (stereo unspecified),3%&-9%,0.64,i,8.3,-1.6,-7.0,1.1
CCN(Cc1ccccc1)C(c1ccc(C(F)(F)F)cc1)c1nnnn1C(C)(C)C (stereo unspecified),-2%,0.69,·,·,-2.1,7.8,6.3
COc1cc(NC(=O)c2noc3c2CCC3)c(OC)cc1Cl,16µM*,0.75,·,·,-17,2.4,-45
Ic1ccc(N2CCN(Cc3c[nH]c4ncccc34)CC2)cc1,·,0.69,i,3.5,5.4,·,1.4
COc1ccccc1CNC(=O)COc1ccccc1C,·,0.67,i,1.6,8.0,3.8,2.2
Cc1c(NC(=O)Nc2ccc(Cl)c(Cl)c2)c(=O)n(-c2ccccc2)n1C,-2%,0.64,·,·,-2.5,·,-0.9
Cc1coc2cc3oc(=O)c(CCC(=O)NCCCN4CCOCC4)c(C)c3cc12,·,0.74,i,-2.1,0.3,4.5,-31
CC(NC(=O)c1ccc([N+](=O)[O-])cc1Cl)C1CC2CCC1C2 (stereo unspecified),·,0.65,i,5.5,2.3,-1.3,-1.3
O=C1OC(c2ccccc2)C2(CCCC2)C(=O)C12CCCC2 (stereo unspecified),?,0.7,·,·,1.5,8.1,-1.1

# A second format for some results above.
# Every second line gives: Vif TR-FRET	E coli growth	FGF22 binding	AF4-AF9 inh	HNF4A DNA FP	RanGTP-Imp inh	UCH37 DUB inh
> CCN(Cc1ccccc1)C(c1ccc(C(F)(F)F)cc1)c1nnnn1C(C)(C)C (stereo unspecified)
  -2%	0.69	·	·	-2.1	7.8	6.3
> COc1cc(NC(=O)c2noc3c2CCC3)c(OC)cc1Cl
  16µM*	0.75	·	·	-17	2.4	-45

# Later entries:
SMILES,Vif TR-FRET,E coli growth,FGF22 binding,AF4-AF9 inh,HNF4A DNA FP,RanGTP-Imp inh,UCH37 DUB inh
Cc1cc(C)c(Cn2c(=O)n(CCCC(=O)NCc3ccco3)c(=O)c3sccc32)c(C)c1,-4%,0.77,·,·,2.0,-2.5,5.0
CN(C)c1oc(-c2ccccc2Cl)nc1P(=O)(c1ccccc1)c1ccccc1,0%,0.69,·,·,1.8,0.6,-31
Cc1ccc(C(=O)OCC(=O)NC2CCCCC2)cc1S(=O)(=O)N1CCCCC1,·,0.68,i,-1.6,0.9,·,0.6
COc1nc(-c2ccccc2Cl)ccc1C#N,-2%,0.63,·,·,-1.1,-3.0,0.5
CCOC(=O)c1sc2nc(N3CCOCC3)c3c(c2c1N)CCN(C)C3,7%,0.68,·,·,·,2.5,i
CCN(CC)C(=O)[C@H]1CC(CC(=O)NCCCN(C)C)C(=O)N2CCc3c([nH]c4ccc(OC)cc34)[C@]12C (stereo partly specified),-2%,0.68,·,-0.8,0.7,·,-0.4
O=C(NCc1ccco1)C(Cc1ccccc1)N1C(=O)c2ccccc2C1=O (stereo unspecified),17%,0.76,·,·,0.9,-0.3,4.2
COc1ccc(Cl)cc1NC(=O)COC(=O)Cc1cc(OC)c(OC)c(OC)c1,-1%,0.67,·,-0.6,5.8,·,-0.6
CCOc1cc(S(=O)(=O)NCc2cccs2)ccc1Cl,3%,0.75,·,·,-0.5,-0.1,0.9
CCN(CC)CCN(C(=O)/C=C/c1cccs1)c1nc2ccc(Cl)cc2s1,·,0.68,i,3.8,-1.9,0.2,-3.3
CC(=O)Nc1ccc(-c2csc(NC(=O)c3ccc(C)o3)n2)cc1,0%,0.67,·,·,0.5,1.0,-1.0
O=C(Nc1ccc(-c2nc3ccccc3s2)c(OC(=O)c2ccccc2)c1)c1ccccc1,-94%,0.67,·,·,-1.2,-2.5,1.8
On1nnc2c3ccccc3c3ccccc3c21,1%,0.68,·,-2.2,0.8,-0.7,3.5
CN(C)c1ccc([C@@H]2[C@@H]([N+](=O)[O-])[C@H]3C=Cc4ccccc4N3[C@H]2C(=O)c2ccc(Cl)cc2)cc1,·,0.69,i,15,30,·,6.1
NNC(=O)c1ccc2c(c1)S(=O)(=O)NNC2=O,15%,0.7,i,2.1,12,-4.3,4.4
COc1cc(NC(=O)c2cnc(N)o2)cc(C(=O)Nc2cccc(C(F)(F)F)c2)c1,-6%,0.67,+!,5.7&13,2.7&3.8,0.3,3.6
O=C(NC(Cc1c[nH]c2ccccc12)C(=O)NCCCN1CCOCC1)c1cccs1 (stereo unspecified),2%,0.61,i,-1.7,1.6,2.5,1.2
COc1cc(-c2cc(N)n(S(=O)(=O)c3ccc(F)cc3)n2)cc(OC)c1OC,-2%,0.69,i,8.3,-3.8,1.8,3.4
O=C(CSc1ncn[nH]1)Nc1ccc(Cl)c(Cl)c1,-12%,0.65,·,·,-4.9,4.0,1.2
CC(C)c1ccccc1NC(=O)C1CCCN(C(=O)c2ccc(Cl)cc2)C1 (stereo unspecified),3%,0.68,i,0.0,-0.1,·,0.2
Cc1ccc(C)c(CN2CCC(n3nccc3NC(=O)C3CCCC3)CC2)c1,·,0.72,i,2.1,5.5,2.2,1.2

# Bioassay records (PubChem BioAssay)
